# RE007 growth inh – less growth of the S. pombe RE007 Vpr strain; S. pombe RE007 Vpr strain, BacTiter-Glo ATP luminescence, 24 h; control for the full effect not named in the record; Potency, µM (titrated, usually from 92.2 µM), for inactives: top-dose activity change, negative = less growth; 360,000 compounds, 0.21% hits; active = well fitted falling curve with a large enough effect; inconclusive = small, poorly fitted or top-dose-only effect; inactive = no such curve, though single readings can be large or run the other way;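 also: nearly all actives have a fitted effect of over 50% in size; the assay follows cell death caused by Vpr and the record does not say whether a fall means rescue or toxicity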
#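 Fission yeast RE007 carrying one integrated HIV-1 vpr copy, seeded at OD 0.01 in PMG+AL medium with 23 nL pinned compound. Grown 24 h at 30 degrees; viability read by BacTiter-Glo luminescence after 5 min.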
# 2A StopGo – lowers the luciferase signal of an FMDV 2A StopGo reporter; human cells with a luciferase reporter of 2A StopGo recoding; control for the full effect not named in the record; Potency, µM (top dose mostly 57.9 µM), inactives show at the highest dose signal change, negative = less light; 410,000 compounds, 1.2% hits; active = well fitted falling curve with a large enough effect; inconclusive = small, poorly fitted or top-dose-only effect; inactive = no such curve, though single readings can be large or run the other way; tested in HEK293T cells; also: nearly all actives have a fitted effect of over 45% in size; luciferase light after 4 h
# The depositor's hits bear a star; ? = inconclusive; & = joins results of further samples; [ ] = remark or other dose. % is scaled to controls: 0 for no effect and ±100 for the full control effect; potency is read from the fitted curve at half-maximal effect. Only part of the results is shown; rates above refer to the full screens.
# Values run as follows: RE007 growth inh	2A StopGo
Cc1cc(C)n2nc(SCC(=O)NC3(C#N)CCCCC3)nc2n1
  -4%	-19%
C[C@H](CO)N1C[C@H](C)[C@@H](CN(C)C(=O)Oc2ccc3ccccc3c2)OCc2cn(nn2)CCCC1=O
  6%	7%
CCOC(=O)[C@H](CCc1ccccc1)N[C@H]1CCc2ccccc2N(CC(=O)O)C1=O
  5%	-25%&-10%
Cc1nc2c(OCc3ccc(C(F)(F)F)cc3)cccn2c1N(C)C(=O)CCC1CCCC1
  -5%	?
O=C(C[C@H]1CC[C@@H]2[C@H](COC[C@H](O)CN2Cc2cccc(C(F)(F)F)c2)O1)NCCc1ccccc1
  -7%	?
COc1cc(N(C(C)=O)c2ccc(O)c(C(=O)O)c2)c2ncccc2c1
  0%	-16%
COc1ccc(NC(=O)Nc2ccc3c(c2)C(=O)N([C@H](C)CO)C[C@H](C)[C@@H](CN(C)Cc2ccc(Cl)c(Cl)c2)OCCCC[C@@H](C)O3)cc1
  5%	-5%
Cc1ccc2cc(F)ccc2n1
  0%	-21%
O=C(Nc1ccc(C(=O)N2CCCC2)cc1)C1CC1
  11%	-5%
O=C(O)c1sccc1S(=O)(=O)N1CCCCC1
  7%	-23%
CC1(C(=O)O)CCN1C(=O)c1cccc(OC(F)(F)F)c1 (configuration not stated)
  3%	-2%
C#CCOCCOCCOCCNc1nc(N2CCOCC2)nc(N2CCN(C(=O)[C@H](Cc3ccc(O)cc3)n3cc(CCO)nn3)CC2)n1
  8%	-4%
CC(=O)Nc1ccc(CNc2nc(NCc3cccs3)nc3ccsc23)cc1
  -17%	0%
CC(C)(C)OC[C@H](NC(=O)c1[nH]cnc1C(=O)Nc1ccccc1F)C(=O)OC(C)(C)C
  ?	-39%
COc1cccc(NC(=O)N2CCc3nc(Nc4ccc(C(C)C)cc4)ncc3C2)c1
  3%	-14%
C[C@@H]1CC[C@]2(O[C@H](CCO)C[C@H](O)[C@H]2O)O1
  22%	-11%
COc1ccc(-n2nnnc2C(c2ccnc3ccccc23)N2CCN(C/C=C/c3ccccc3)CC2)cc1 (configuration not stated)
  -21%	0%
CN(C)c1ncnc2c1ncn2[C@H]1CN(Cc2cccs2)C[C@@H](CO)O1
  2%	-7%
Cc1cn([C@H]2C[C@H](O)[C@@H](/C=C/C(=O)NCCC(C)C)O2)c(=O)[nH]c1=O
  7%	-8%
CC(C)CCNC(=O)C1(C)CCN1Cc1ccc(-c2ccccn2)cc1 (configuration not stated)
  -4%	?
Cn1cnc(S(=O)(=O)N2CCCCC2c2cc(C(=O)Nc3cccc4c3CCCC4)no2)c1 (configuration not stated)
  5%	-29%
CC(=O)NC(c1cccc(F)c1)c1nc(-c2cccc(C(C)C)c2)cs1 (configuration not stated)
  22%	-17%
CC(C)NC(=O)c1ccc2nc([C@@H]3O[C@H](CO)[C@H](O)[C@H](O)[C@H]3O)[nH]c2c1
  -6%	-23%
COc1ccc(C(O)c2ncc(-c3ccccc3C)[nH]2)cc1 (configuration not stated)
  -19%	30%
Cc1ccnn1CCC(=O)N1CCCC(Nc2ccc(C(C)C)cc2)C1 (configuration not stated)
  -12%	?
O=C(Cn1cc(COc2ccc(Br)cc2)nn1)c1ccc(O)cc1
  -1%	2%
CN1C[C@@H]2[C@@H]3C(=O)N(C)C(=O)[C@@H]3[C@](C)(C1=O)N2C(=O)c1ccc(Cl)c(Cl)c1
  -4%	-21%
O=C(NCc1ccncc1)C1Cc2c(-c3ccccc3Oc3ccccc3)ccnc2O1 (configuration not stated)
  3%	?
Nc1ccn(C(C=O)CC(C=O)CO)c(=O)n1 (configuration not stated)
  3%	-2%
CCCCCCCCN1C(=O)[C@H](CC(=O)NCc2cccs2)C[C@@]2(C(=O)OC)CCCCC=C12
  1%	-17%
Cc1n[nH]c2ccc(Br)cc2c1=O
  -20%	-24%
O=C(NC1CCCCC1)C(c1ccc(C(F)(F)F)cc1)n1c(=O)c(-c2ccco2)nc2ccccc21 (configuration not stated)
  11%	-8%
COc1cc(OC)cc(-c2noc(-c3csc([C@@H]4O[C@H](CO)[C@H](O)[C@H](O)[C@H]4O)n3)n2)c1
  4%	-8%
Cc1ccc(S(=O)(=O)N2CCOCC2)cc1NC(=O)CSc1nnnn1C1CC1
  -6%	-1%
Cc1ccc(C2=NOC(C)(c3nnc(Cc4ccccc4)o3)C2)cc1 (configuration not stated)
  0%	0%
O=C(NC(c1ccc(Cl)cc1)c1ccsc1)C1CCN(Cc2cccc(C(F)(F)F)c2)CC1 (configuration not stated)
  ?	-21%
Cc1c(C(=O)NCc2ccc(F)cc2)sc(=O)n1Cc1ccccc1F
  0%[18.4 µM]	-10%
C=CCN1[C@@H](Cc2ccccc2)COc2cc(N3CCSCC3)ccc2S1(=O)=O
  -9%	-18%
O=C(NCc1cc(C(F)(F)F)cc(C(F)(F)F)c1)C1CC(c2ccc(C(F)(F)F)cc2)=NO1 (configuration not stated)
  -12%	?
Fc1cccc(Cc2c(-c3ccccc3)nc3ccc(Cl)cn23)c1
  -3%	7%
C[C@H](O)[C@@H]1CN2CCc3c([nH]c4ccccc34)[C@@H]2C[C@@H]1N(C)C(=O)NC1CCCCC1
  14%	-6%
COc1ccc(NC2CCCN(C(=O)COc3ccc(C(C)=O)cc3)C2)cc1 (configuration not stated)
  2%	1%
CCCCOc1ccc(C(=O)NCC(=O)N2CCN(C/C=C/c3ccccc3)CC2)cc1
  7%	?
O=C(Nc1nnc([C@@H]2C[C@H](O)[C@@H](CO)O2)s1)c1cccc2ccccc12
  -9%[18.4 µM]	35%[activator]
CC(C)(C)OC(=O)N(CCc1ccccc1)Cc1ccccc1OCc1ccc(NC(=O)C2CCC2)cc1
  3%	-19%
COCCNC(=O)C1CCCN(C(=O)COCc2ccccc2)CC1 (configuration not stated)
  7%	-22%
CCc1nc2ccc(C(=O)NCc3ccc4c(c3)OCO4)cn2c1N(CC)CCN(C)C
  -9%[18.4 µM]	-16%
Cc1ccc(C(O)c2ncc(-c3cccc(C(F)(F)F)c3)[nH]2)c(C)c1 (configuration not stated)
  -10%	7%
COc1cccc(-c2nc(Cl)nc3cc(Cl)ccc23)c1
  -9%	0%
COC(=O)C1=C(c2cccc(OC)c2OC)C[C@@H]2CC[C@H]1N2C(=O)NCCCOC(C)C
  0%	6%

# Next part; the last 3 above are carried over.
# Values run as follows: RE007 growth inh	2A StopGo
Cc1ccc(C(O)c2ncc(-c3cccc(C(F)(F)F)c3)[nH]2)c(C)c1 (configuration not stated)
  -10%	7%
COc1cccc(-c2nc(Cl)nc3cc(Cl)ccc23)c1
  -9%	0%
COC(=O)C1=C(c2cccc(OC)c2OC)C[C@@H]2CC[C@H]1N2C(=O)NCCCOC(C)C
  0%	6%
CC1(C(=O)NCc2ccccc2)CCC(=O)N1CCOc1ccccc1 (configuration not stated)
  10%	-4%
Nc1nonc1-n1nnc(C(=O)N/N=C/c2ccccc2O)c1CN1CCCC1
  -2%	-20%
O=S(=O)(CCN1CCCC1)NCCNS(=O)(=O)c1ccc(F)cc1Br
  -18%	24%
CCOC(=O)C1CCN(S(=O)(=O)c2ccccc2[N+](=O)[O-])CC1
  11%	0%
O=C1c2ccccc2S(=O)(=O)c2cc(C(=O)N3CCN(c4c(Cl)cncc4Cl)CC3)ccc21
  -11%	-12%
COc1ccc(C(C(=O)NC(C)(C)C)n2c(=O)c(-c3cc4ccccc4[nH]3)nc3ccccc32)cc1 (configuration not stated)
  -13%	-6%
COc1cccc(/C=C/C(=O)OCC(=O)Nc2ccc3c(c2)OCO3)c1
  -4%	-10%
CCOC(=O)C(CC)c1cc2n(c(=O)c1C#N)CCC21OCCO1 (configuration not stated)
  2%	-7%
COCCCN1C(=O)C(CC(=O)NC2CCCC2)CC(C(=O)N2CCOCC2)=C1C (configuration not stated)
  6%	-24%
Cc1ccc(OCC(=O)Nc2ccncc2)cc1C
  -12%	-11%
COc1ccc(Nc2c(CCc3ccccc3)nc3nc(C)cc(C)n23)cc1
  -22%	-4%
COC(=O)[C@]12CCCCC=C1N(Cc1cccc3ccccc13)C(=O)[C@H](CC(=O)N1CCOCC1)C2
  2%	-23%
CCCCn1nnnc1C1(C)CCC(=O)N1Cc1ccc(C)cc1 (configuration not stated)
  6%	-15%
CS(=O)(=O)Nc1ccc(F)cc1
  4%	-24%
CC1(C(=O)Nc2cccc(NS(C)(=O)=O)c2)CCN1CCc1ccccc1 (configuration not stated)
  -16%	-19%
CC(C)c1ccc(NC(=O)C2(C)Cc3c(-c4ccc(C(N)=O)cc4)ccnc3O2)cc1 (configuration not stated)
  -8%	-29%
CCOC(=O)c1c(C)[nH]c(C)c1C(=O)COC(=O)/C=C/c1cccc([N+](=O)[O-])c1
  -10%	-27%
Oc1cccc(-c2csc(C(O)(c3ccccc3)C(F)(F)F)n2)c1 (configuration not stated)
  12%	53%[activator]
CC(=O)Nc1cnc(-c2cccc(C(=O)N(C)C)c2)cn1
  -3%	28%
Cc1cc(=O)n2nc(N3CCCC(C(=O)NCCCN4C(C)CCCC4C)C3)sc2n1 (configuration not stated)
  -9%	-16%

# Sorted by SMILES length (lowest first): some entries from above
# Values run as follows: RE007 growth inh	2A StopGo
Nc1ccn(C(C=O)CC(C=O)CO)c(=O)n1 (configuration not stated)
  3%	-2%
Cc1ccc(C2=NOC(C)(c3nnc(Cc4ccccc4)o3)C2)cc1 (configuration not stated)
  0%	0%
CC1(C(=O)Nc2cccc(NS(C)(=O)=O)c2)CCN1CCc1ccccc1 (configuration not stated)
  -16%	-19%
Cc1ccc(S(=O)(=O)N2CCOCC2)cc1NC(=O)CSc1nnnn1C1CC1
  -6%	-1%
Cc1ccc(C(O)c2ncc(-c3cccc(C(F)(F)F)c3)[nH]2)c(C)c1 (configuration not stated)
  -10%	7%
Cc1nc2c(OCc3ccc(C(F)(F)F)cc3)cccn2c1N(C)C(=O)CCC1CCCC1
  -5%	?

# (next part)
# Values run as follows: RE007 growth inh	2A StopGo
COc1cccc(-c2cc3nc(NCCOc4ccccc4Cl)n(C)c(=O)c3s2)c1
  4%	-6%
Cc1ccccc1CNC(=O)c1csc([C@H]2C[C@H](O)[C@@H](CO)O2)n1
  9%[18.4 µM]	-11%
CCOC(=O)[C@]12CCCC=C1N(CCc1ccc(OC)c(OC)c1)C(=O)[C@H](CC(=O)NCCc1ccccc1OC)C2
  -7%	-24%
COc1cc(C=NNC(=S)Nc2ccc(S(=O)(=O)N3CCCCC3)cc2)cc(OC)c1OC
  12%	-8%
CCc1nc2ccc(C(=O)Nc3ccc4c(c3)OCC(=O)N4)cn2c1N(CC)Cc1cccc(Br)c1
  0%	?
Oc1c(Br)cc(Br)cc1C=Nc1cccc2ncccc12
  ?	-17%
O=C1NC[C@H](CCCCN2C[C@H](Cc3ccccc3)N(CCc3ccc(O)cc3)C(=O)C2=O)N(CCc2ccccc2)C1=O
  20%	-13%
CCO[C@@H]1OC(C(N)=O)=C[C@H](C2CC2)[C@H]1CCCO
  1%	0%
O=c1[nH]c(N2CCOCC2)cc2ccccc12
  0%	-20%
CCN1C[C@@H]2[C@@H]3C(=O)N(Cc4ccccc4)C(=O)[C@@H]3[C@](C)(C1=O)N2C(=O)c1ccc(Br)cc1
  -3%	-15%
O=[N+]([O-])c1ccc(COc2ccc(CN3CCCCC3)cc2)cc1
  8%	4%
C[C@H](CO)N1C[C@H](C)[C@H](CN(C)S(=O)(=O)c2cccc(F)c2)OCc2ccccc2-c2c(n(C)c3ccccc23)C1=O
  6%	-13%
COc1ccc(Cl)cc1-c1noc([C@@H]2O[C@H](CO)[C@H](O)[C@H](O)[C@H]2O)n1
  6%	-25%
O=C(O)CCC(C(=O)O)N1C(=O)C2C3CCC(C3)C2C1=O (configuration not stated)
  -20%	12%
Cc1ccc(NC(=O)C2(C)CCN2C(=O)C2CCCCC2)cc1C (configuration not stated)
  -1%	-16%
Cc1ccsc1-c1cc2nc(NCCCN(C)C)n(C)c(=O)c2s1
  0%	9%
Cc1ccc(S(=O)(=O)N2[C@@H](Cc3ccccc3)CO[C@H]2CC(=O)c2ccc(F)cc2)cc1
  -1%	-16%
Cc1ccc(CN2CC(N3CCC(c4ccccc4)CC3)CS2(=O)=O)cc1 (configuration not stated)
  -16%	-13%
Oc1ccc(C[C@H]2CN([C@@H](Cc3ccc(O)cc3)CN3CCC[C@@H]3CN3C(=S)NC[C@@H]3Cc3ccccc3)C(=S)N2CC2CCCCCC2)cc1
  -7%	-7%
CN1CCC(C)(C(=O)Nc2ccc3c(c2)OCCO3)C1 (configuration not stated)
  -4%	-7%
O=C(O)CN1C(=O)C2C3CCC(C3)C2C1=O (configuration not stated)
  10%	0%
CC(C)(C)OC(=O)N(CCc1ccccc1)Cc1cccc(OCc2cccc(NC(=O)C3CCC3)c2)c1
  -11%	-22%
CCOC(=O)c1cc(Cl)c2c(ccc3ccccc32)n1
  2%	-15%

# Screening data (PubChem)
